# KCNQ2 block: KCNQ2 channel blockers in CHO-K1 cells – cell-based, FluxOR thallium flux, B-score, primary screen (AID 2156); 20 min; stronger effect = lower value; only compounds with negative scores are shown here; some inactives read as strong as hits; B-score at 10 µM; hit rate 1.1% among 310,000;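 active = fluorescence ratio B-score at most minus 3 library SDs, with starting brightness B-score within 2 library SDs, cut at about -5.5 in these data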
# Target sequence (O88943 whole entry, looked up): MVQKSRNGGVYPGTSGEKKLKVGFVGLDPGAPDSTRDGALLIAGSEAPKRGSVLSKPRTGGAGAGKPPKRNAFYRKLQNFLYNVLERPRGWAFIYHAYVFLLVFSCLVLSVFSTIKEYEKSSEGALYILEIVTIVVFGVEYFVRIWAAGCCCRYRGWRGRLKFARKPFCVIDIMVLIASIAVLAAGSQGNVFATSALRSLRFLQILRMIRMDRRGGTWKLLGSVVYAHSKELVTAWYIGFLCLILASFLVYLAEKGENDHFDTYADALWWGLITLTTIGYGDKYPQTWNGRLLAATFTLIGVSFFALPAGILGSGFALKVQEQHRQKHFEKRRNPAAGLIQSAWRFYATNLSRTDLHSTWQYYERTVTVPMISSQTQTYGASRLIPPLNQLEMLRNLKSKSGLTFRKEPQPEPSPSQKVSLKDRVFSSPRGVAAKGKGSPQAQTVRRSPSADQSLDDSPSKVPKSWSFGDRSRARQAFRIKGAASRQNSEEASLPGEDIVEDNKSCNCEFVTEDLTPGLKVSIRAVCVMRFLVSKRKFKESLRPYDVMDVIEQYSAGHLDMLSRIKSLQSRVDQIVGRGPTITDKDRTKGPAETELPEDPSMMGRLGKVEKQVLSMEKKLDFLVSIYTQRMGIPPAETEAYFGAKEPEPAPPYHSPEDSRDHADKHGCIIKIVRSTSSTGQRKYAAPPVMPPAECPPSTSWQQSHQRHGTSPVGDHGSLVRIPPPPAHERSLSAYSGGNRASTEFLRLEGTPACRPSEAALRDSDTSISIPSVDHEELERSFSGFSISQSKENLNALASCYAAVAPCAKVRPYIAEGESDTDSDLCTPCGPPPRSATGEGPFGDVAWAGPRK
# KCNQ2 block baseline: recorded beside KCNQ2 block, whose call it bears; B-score; measured here: initial fluorescence intensity artifact check;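 brightness before thallium and not channel activity; 0 = typical well and far values either way flag optical interference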
# Active calls of the source: *; i = inactive.
structure | KCNQ2 block baseline | KCNQ2 block
O=C(CN(C(=O)c1csnn1)c1cccc2c1CCCC2)NCc1ccc(F)cc1 | 0.03 | i
CC1CN(c2ccc(Cl)cc2[N+](=O)[O-])CCN1S(C)(=O)=O (stereo not drawn) | 1.16 | i
Cc1cc(C)c2c(CC(=O)Nc3nccs3)coc2c1 | -0.43 | i
CCOc1cc2[nH]c(=S)n(Cc3ccc(C(=O)NCCN(CC)CC)cc3)c(=O)c2cc1OCC | -0.61 | i
CCc1nc(Cl)c(C#N)c2c1CCCC2 | 2.82 | i
O=C(O)c1cc([N+](=O)[O-])c(N2CCCC2)c([N+](=O)[O-])c1 | -0.05 | i
O=C1NC(Cc2c[nH]c3ccccc23)C(=O)N1CCOc1ccccc1 (stereo not drawn) | -1.27 | i
CCOC(=O)c1[nH]c2ccccc2c1NC(=O)CC(C)C | -1.13 | i
Cc1cc(CN(C)C(=O)C2CCC(=O)N(CCc3cccc(F)c3)C2)on1 (stereo not drawn) | -0.56 | i
O=C(NCCCn1ccnc1)c1ccc(C(F)(F)F)cc1 | -0.03 | i
CCc1nc2ccccc2c(NC(=O)CN2CCC(C)CC2)c1C | -0.01 | i
Nc1nnc(-c2ccc(Cl)cc2)s1 | 0.4 | i
O=C(CSc1ccncc1)Nc1ccc(S(=O)(=O)Nc2nccs2)cc1 | -1.78 | i
COc1ccc(C(=O)N2CCC(n3nccc3NC(=O)C3CCOC3)CC2)cc1 (stereo not drawn) | 1.8 | i
CCC(C(=O)N1CCN(C(=O)c2ccco2)CC1)n1sc2ccccc2c1=O (stereo not drawn) | -1.05 | i
O=C(N/N=C/c1cccs1)C(=O)N1CCCC1 | 1.66 | i
CN1C(=S)SC(/[N+]([O-])=C\c2ccccc2F)C1(C)C (stereo not drawn) | -1.75 | i
Cn1c(CN2CCCC2)nc2cc(NC(=O)c3ccco3)ccc21 | 0.34 | i
COc1cc2[nH]c(=S)n(C3CCN(Cc4ccccc4)CC3)c(=O)c2cc1OC | 0.15 | i
CCCCNc1c(-c2ccc(-c3cccc(Cl)c3)cc2)nc2ccccn12 | 0.41 | i
COc1ccc(C(=O)Oc2ccc(Br)cc2C(=S)N2CCOCC2)cc1 | -0.34 | i
Cc1csc(NC(=O)c2ccc(Cn3nc(C)c(Br)c3C)o2)n1 | 0.15 | i
O=S(=O)(NCCOCC(F)(F)C(F)F)c1ccc2oc3ccccc3c2c1 | -0.3 | i
Cc1nc(-c2ccc(Cl)cc2)sc1C(=O)CBr | 2.99 | i
CC(=O)c1ccc(S(=O)(=O)N2CCC(c3nc4ccccc4[nH]3)CC2)cc1 | -0.03 | i
COc1ccc(OCCCC(=O)Nc2nc(-c3ccccn3)cs2)cc1 | -0.2 | i
NS(=O)(=O)c1ccc(NC(=S)NCCc2ccccc2)cc1 | 1.84 | i
Cc1nonc1NC(=O)CSc1nnc(N)s1 | -0.05 | i
O=C(CCCc1ccccc1)Nc1ccc(S(=O)(=O)N2CCOCC2)cc1 | 0.61 | i
Cc1ccc(-n2nc(C)c3c(C(=O)OCC(=O)N(C)C4CCS(=O)(=O)C4)cc(-c4ccccc4)nc32)cc1 (stereo not drawn) | 0.25 | i
Cc1ccc(S(=O)(=O)N(C)c2ccc(OC(=O)c3ccc(=O)[nH]c3)cc2)cc1 | 0.84 | i
CCc1noc(C)c1C(=O)N(C)CC(=O)Nc1ccc(Cl)c(Cl)c1 | 2.6 | i
CN(CCOc1ccccc1)C(=O)C1CCC(=O)N(CCCN2CCOCC2)C1 (stereo not drawn) | 0.88 | i
CC1CCN(CC(O)CN2c3ccccc3Sc3ccccc32)CC1 (stereo not drawn) | 0.91 | i
Cc1cccc(N2CCN(C(=O)/C=C/c3ccco3)CC2)c1C | 0.76 | i
O=C(Nc1c(C(=O)Nc2ccccc2)cnn1-c1ccccc1)c1ccco1 | 0.31 | i
CC(Oc1ccccc1)C(=O)N=C1SC2CS(=O)(=O)CC2N1c1ccccc1 (stereo not drawn) | -1.09 | i
CC(NS(=O)(=O)c1ccccc1Cl)C1CC2CCC1C2 (stereo not drawn) | -2.73 | i
COc1ccc(/C=C/C(=O)Nc2ccc3c(c2)OCCO3)cc1OC | 0.54 | i
COc1ccc(S(=O)(=O)c2ccc(OC)cc2)cc1 | -0.1 | i
CC1CC(NC(=O)CC#N)CC(C)(C)C1 (stereo not drawn) | 1.84 | i
Cc1ccc(C(=O)Nc2ccc3c(c2)OCCO3)o1 | 0.57 | i
Cc1cc(C)n(CCN(C)Cc2nc(Cc3ccccc3F)no2)n1 | -0.65 | i
O=C(NCC1CCN(S(=O)(=O)c2ccccc2)CC1)Nc1ccc(F)cc1 | -0.65 | i
O=C(Nc1cc(C(F)(F)F)ccc1N1CCOCC1)c1ccc(Br)o1 | -0.07 | i
N#Cc1c(-c2ccco2)nc(NCC2CCCO2)[nH]c1=O (stereo not drawn) | 0.08 | i
CCc1ccc2oc(-c3cc(N=Cc4cccc(OC)c4O)ccc3O)nc2c1 | -0.55 | i
CCN(C(=O)COC(=O)/C=C/c1cccc(Br)c1)C1CCS(=O)(=O)C1 (stereo not drawn) | -0.43 | i
Cc1noc(/C=C/c2ccco2)c1S(=O)(=O)N1CCC(C(=O)N2c3ccccc3CC2C)CC1 (stereo not drawn) | -0.43 | i
Cc1cccc(N2CN=c3s/c(=C\c4ccccn4)c(=O)n3C2)c1 | 2.12 | i

# Going on with the list.
structure | KCNQ2 block baseline | KCNQ2 block
COc1cccc(CC2(CO)CCN(C(=O)NC3CCCCC3)CC2)c1 | -0.94 | i
Cc1cccn2c(=O)c3cc(C(=O)N4c5ccccc5CC4C)n(C)c3nc12 (stereo not drawn) | 0.47 | i
COCCn1c(C)cc(C(=O)COC(=O)c2cncc(Br)c2)c1C | 2.09 | i
CCn1c(COc2cccc(C)c2)nnc1SCC(=O)CC(=O)Nc1ccccc1OC | 1.72 | i
Cc1nc2scc(-c3ccco3)c2c(=O)n1/N=C/N(C)C | -0.84 | i
CC1CN(CC(=O)Nc2nc(-c3ccc(Cl)cc3)cs2)CC(C)O1 (stereo not drawn) | -0.96 | i
Cc1cc(C)c(C#N)c(SCC(=O)N2CCCCC2)n1 | 0.71 | i
Nc1c(C(=O)c2ccc(Br)s2)oc2ccccc12 | -0.23 | i
Clc1ccccc1OCCn1ccnc1 | 2.04 | i
COCCCN1C(=O)C(=O)/C(=C(/O)c2ccc(OC)cc2)C1c1cccc(OC)c1 (stereo not drawn) | 1.19 | i
N#C/C(=C\c1ccc[nH]1)C(=O)c1ccccc1 | 0.47 | i
Cc1cccc(C)c1OCc1cc(C(=O)N2CCN(C3CCCC3)CC2)no1 | -1.12 | i
CCn1c(CNC(=O)c2ccccc2OC)nnc1SCC(=O)c1ccc(F)cc1 | 1.21 | i
COc1cccc(C2C3=C(CC(C)(C)CC3=O)Nc3cc4c(cc32)OCO4)c1 (stereo not drawn) | 2.59 | i
C/C(=N\NC(=S)Nc1c(C)cccc1C)c1cc2ccccc2o1 | -0.05 | i
CC(C)C(C(=O)NC1CCCC1)N(CC1CCCO1)C(=O)CNS(=O)(=O)c1ccc(F)cc1 (stereo not drawn) | -0.64 | i
COc1ccc(-c2ccc(CCC(=O)O)n2CC2CCCO2)cc1 (stereo not drawn) | 0.71 | i
S=c1[nH]nc(-c2ccccc2)n1/N=C/c1cccs1 | 0.26 | i
COc1ccc(CCC(C)Nc2cccc(F)c2)cc1 (stereo not drawn) | -0.17 | i
Cc1ccc(S(=O)(=O)N2CCN(C(=O)CN3CCCC3)C2)cc1 | 0.47 | i
Cc1ncn2cc(-c3ccc(Cl)cc3Cl)[nH]c(=O)c12 | 2.3 | i
CCN(CC(=O)Nc1ccc(S(=O)(=O)N2CCCCC2)cc1)Cc1ccccc1 | -0.2 | i
COc1cc(OC)c(OC)cc1/C=C1\CCC(C2CCCC2)C1=O (stereo not drawn) | 1.33 | i
Cc1ccc(CNC(=O)C2CCCCC2C(=O)O)cc1 (stereo not drawn) | 0.86 | i
Nc1cccc2c(=O)c3ccccc3[nH]c12 | -2.19 | i

# A run of entries of the results above:
structure | KCNQ2 block baseline | KCNQ2 block
O=C(CN(C(=O)c1csnn1)c1cccc2c1CCCC2)NCc1ccc(F)cc1 | 0.03 | i
CC1CN(c2ccc(Cl)cc2[N+](=O)[O-])CCN1S(C)(=O)=O (stereo not drawn) | 1.16 | i
Cc1cc(C)c2c(CC(=O)Nc3nccs3)coc2c1 | -0.43 | i
CCOc1cc2[nH]c(=S)n(Cc3ccc(C(=O)NCCN(CC)CC)cc3)c(=O)c2cc1OCC | -0.61 | i
CCc1nc(Cl)c(C#N)c2c1CCCC2 | 2.82 | i

# The main list resumes with the seven entries that preceded the break.
structure | KCNQ2 block baseline | KCNQ2 block
COc1ccc(CCC(C)Nc2cccc(F)c2)cc1 (stereo not drawn) | -0.17 | i
Cc1ccc(S(=O)(=O)N2CCN(C(=O)CN3CCCC3)C2)cc1 | 0.47 | i
Cc1ncn2cc(-c3ccc(Cl)cc3Cl)[nH]c(=O)c12 | 2.3 | i
CCN(CC(=O)Nc1ccc(S(=O)(=O)N2CCCCC2)cc1)Cc1ccccc1 | -0.2 | i
COc1cc(OC)c(OC)cc1/C=C1\CCC(C2CCCC2)C1=O (stereo not drawn) | 1.33 | i
Cc1ccc(CNC(=O)C2CCCCC2C(=O)O)cc1 (stereo not drawn) | 0.86 | i
Nc1cccc2c(=O)c3ccccc3[nH]c12 | -2.19 | i
CCC(C)(C)n1nnnc1C(c1ccc(C)cc1)N(Cc1ccco1)Cc1cccs1 (stereo not drawn) | -0.67* | -9.93*
Cc1ccc(CNS(=O)(=O)c2c(C)[nH]c(=O)[nH]c2=O)cc1 | 0.03 | i
Cn1cc(C(=O)N/N=C/c2c(O)ccc3ccccc23)ccc1=O | 0.14 | i
Cc1cccc(NC(=O)CN2C(=O)COc3ccc(Cl)cc32)c1C | 0.92 | i
Cc1ccc(NC(=O)C2CCN(S(=O)(=O)c3cccs3)CC2)cc1C | -1.43 | i
COCCCNC(CC(=O)Nc1ccc(OC)cc1OC)C(=O)O (stereo not drawn) | -0.58 | i
CC(C)CC(OC(=O)CC1Sc2ccccc2NC1=O)C(=O)NC1CCCC1 (stereo not drawn) | 0.51 | i
O=C(O)c1ccccc1N1C(=O)C2C3c4ccccc4C(Br)(c4ccccc43)C2C1=O (stereo not drawn) | -0.02 | i
Cc1ccccc1NS(=O)(=O)c1ccc(C2CNC(=O)C2)cc1 (stereo not drawn) | 1.44 | i
O=C(N/C(=C/c1ccco1)C(=O)N1CCOCC1)c1ccccc1Br | 0.55 | i
COc1cccc(/C=N/NC(=O)c2nc(-c3ccccc3)cc(-c3ccccc3)n2)c1 | 0.43* | -6.93*
O=C(Cn1cccc1C(=O)c1ccccc1)NCc1cccc(Cl)c1 | 0.5 | i
COc1ccc(C(=O)Nc2nnc(-c3cccs3)s2)cc1 | 2.09 | i
COc1ccc(N(CC(=O)NCc2ccco2)S(=O)(=O)c2ccc(OC)c(OC)c2)cc1 | -0.29 | i
O=C(c1ccsc1)N1CCCC(N2CCN(c3ccccc3F)CC2)C1 (stereo not drawn) | -1.42 | i
CCOC(=O)CSc1nc(C2CC2)cc(-c2ccc(Cl)cc2)c1C#N | 0.53 | i
COc1cc(OC)cc(-c2nnc(Sc3ccc(C=O)cc3[N+](=O)[O-])o2)c1 | -1.83 | i
O=C(COC(=O)c1ccccc1C(=O)OCC(=O)NCCc1c[nH]c2ccccc12)NCCc1c[nH]c2ccccc12 | -1.24 | i
CCOc1ccc(C(NC(=O)/C=C/c2ccco2)c2ccc(OC)c(OC)c2)cc1 (stereo not drawn) | 0.36 | i
CCC(CO)NCc1ccc(OC2CCCC2)cc1 (stereo not drawn) | -0.8 | i
CCc1nn(C(C)C(=O)NCc2cccc(Cl)c2)c(=O)c2cc3occc3n12 (stereo not drawn) | -0.73 | i
COc1cc(Cl)ccc1NC(=S)N(CCN1CCOCC1)C1CCN(C(C)=O)CC1 | 1.25 | i
CCOc1ncccc1C(=O)Nc1cccc(-c2nnc3n2CCCCC3)c1 | 1.2 | i
CCCCC(=O)Nc1ccc(C(=O)Nc2cc(C(F)(F)F)ccc2Cl)cc1 | -0.04 | i
Cc1c(C(=O)N(Cc2ccccc2)Cc2cccnc2)cnn1-c1ccc(F)cc1 | 0.56 | i
Cc1nc2ccccc2n1CC(O)COc1ccc(Br)cc1 (stereo not drawn) | -2.3 | i
Nc1cc(=O)[nH]c(=O)n1CCc1ccccc1 | -0.52 | i
O=C1SC(SC(=Nc2ccccc2)Nc2ccccc2)C(=O)N1c1ccccc1 (stereo not drawn) | -0.69 | i
COc1ccccc1N1C(=O)CSC1=NC(=O)c1ccccc1 | 2.77 | i
CCCCN1C(=O)CCC(C(=O)O)C1c1ccc([N+](=O)[O-])cc1 (stereo not drawn) | 2.13 | i
Cc1ccc(C)c(Cn2nc(-c3ccccc3)ccc2=O)c1 | 0.26 | i
O=C(Nc1nnc(C2CC2)s1)c1cc(S(=O)(=O)N2CCN(c3ccccc3)CC2)ccc1Cl | -0.22 | i
CC(C)NC(=O)c1c2c(nc3ccccc13)CCCC2 | 0.33 | i
CC(CN1CCOCC1)OC(=O)c1ccc2c(c1)OCCO2 (stereo not drawn) | 1.07 | i
Cc1ccccc1OCC(=O)NC(=S)Nc1ccc(N2CCCC2)cc1 | 1.76 | i
O=C(CN1C(=O)S/C(=C\c2ccccc2F)C1=O)NC1C=CS(=O)(=O)C1 (stereo not drawn) | 1.97 | i
COc1ccc(C(=O)OCCCN(C)C)cc1OC | 0.85 | i
COc1cccc2c3c(c(=O)[nH]c12)CC(C)(C)O3 | 0.04 | i
CC(C)CNC(=O)CN(C)S(=O)(=O)c1ccc(F)cc1 | 0.68 | i
COc1ccc2c(COC(=O)CCS(=O)(=O)c3ccccc3)cc(=O)oc2c1 | 0.49 | i
O=C1CN(C(=O)/C=C/c2ccccc2F)c2ccccc2N1 | -0.08 | i
Cc1cc2ncc(S(=O)(=O)C(C)(C)C)c(N)n2n1 | 1.52 | i
C[n+]1cc[nH]c1SCC(=O)c1ccccc1 | 1.37 | i

# Bioassay records (PubChem BioAssay)

# A portion of the library. The share of hits here may be higher or lower than overall.
